# Source: PubChem BioAssay
# Rango-impB inh: qHTS Assay for Inhibitors of Rango (Ran-regulated importin-beta cargo) - Importin beta complex formation. Importin subunit beta-1 (Homo sapiens), Q14974. Rango CFP/YFP FRET sensor + importin beta, 45 min. Potency, µM (highest dose often 92.2 µM), without a hit: at the highest dose inhibition of complex formation. 340,000 compounds, 0.031% hits. AID 540263, 2011; active = rising FRET ratio curve, often small or poorly fitted; inconclusive = mostly compound fluorescence or quenching in the first reads; inactive = flat curves in all reads;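 also: potency is read from the fitted curve at half-maximal effect; 0% = DMSO wells and 100% = buffer wells lacking importin beta; nearly all actives have a fitted effect of over 15% in size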
# Target sequence (Q14974 whole entry, looked up): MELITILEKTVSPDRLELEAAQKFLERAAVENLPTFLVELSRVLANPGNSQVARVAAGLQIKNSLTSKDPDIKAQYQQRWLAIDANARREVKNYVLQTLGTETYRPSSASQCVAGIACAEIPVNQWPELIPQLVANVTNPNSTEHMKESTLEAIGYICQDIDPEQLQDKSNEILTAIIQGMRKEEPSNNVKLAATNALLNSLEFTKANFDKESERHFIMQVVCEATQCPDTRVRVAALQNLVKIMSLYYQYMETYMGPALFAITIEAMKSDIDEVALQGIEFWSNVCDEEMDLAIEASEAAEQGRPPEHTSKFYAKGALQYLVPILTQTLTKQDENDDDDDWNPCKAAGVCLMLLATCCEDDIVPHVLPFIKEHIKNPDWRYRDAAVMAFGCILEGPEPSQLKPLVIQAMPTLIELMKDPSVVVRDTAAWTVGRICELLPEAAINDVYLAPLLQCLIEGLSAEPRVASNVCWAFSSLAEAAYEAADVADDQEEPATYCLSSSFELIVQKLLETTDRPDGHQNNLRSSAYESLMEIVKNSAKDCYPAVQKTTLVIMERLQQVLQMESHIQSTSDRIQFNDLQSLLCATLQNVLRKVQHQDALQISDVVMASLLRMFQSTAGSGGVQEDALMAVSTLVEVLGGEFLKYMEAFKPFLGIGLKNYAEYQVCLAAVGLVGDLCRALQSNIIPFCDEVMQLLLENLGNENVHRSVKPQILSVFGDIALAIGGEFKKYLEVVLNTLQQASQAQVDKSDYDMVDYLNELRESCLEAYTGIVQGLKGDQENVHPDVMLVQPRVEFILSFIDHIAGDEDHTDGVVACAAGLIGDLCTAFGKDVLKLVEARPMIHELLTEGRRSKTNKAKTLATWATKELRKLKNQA
#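 FRET biosensor Rango (snurportin 1 IBB between N-terminal EYFP and C-terminal Cerulean), 50 nM in PBS/1 mM DTT/0.02% Tween-20/0.1% BSA, preincubated 5 min RT with compound; 0.125 microM importin beta added, 45 min RT, CFP/YFP FRET ratio read.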
# Rango release inh: qHTS Assay for Inhibitors of RanGTP induced Rango (Ran-regulated importin-beta cargo) - Importin beta complex dissociation. Snurportin-1 (Homo sapiens) + GTP-binding nuclear protein Ran (Homo sapiens) + Importin …. Biochemical FRET Rango-importin beta, RanGTP-induced dissociation. Potency, µM (series often up to 46.1 µM), inactives show top-dose activity change, negative = inhibition. 340,000 compounds, 0.071% hits; active means falling FRET ratio curve, often poorly fitted, with flat reads before Ran was added; inconclusive means other falling curves, or compound fluorescence or quenching; inactive means flat or rising ratio curve;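 also: potency is read from the fitted curve at half-maximal effect; % of control where 0% means no effect; nearly all actives have a fitted effect of over 45% in size; -100% = wells without RanGTP and RCC1; the record marks most hits as doubtful in a second field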
#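 Recombinant Rango FRET biosensor (EYFP–snurportin 1 IBB–cerulean CFP10) at 0.1 uM premixed with 0.25 uM importin beta in PBS, 1 mM DTT, 0.02% Tween-20, 0.1% BSA. Compound added 5 min; RanGTP-RCC1 (0.6 uM Ran, 2 mM GTP, 0.2 uM RCC1) then triggers release, read at 45 min.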
# miR-21 FLuc: qHTS Assay for Modulators of miRNAs and/orActivators of miR-21; HeLa miR-21 FLuc reporter, luciferase, 48 h; Potency, µM (doses to about 38.3 µM), without a hit: at the top dose reporter change, positive = more light; 340,000 tested, under 10 active; AID 2288, 2010; active = well fitted rising curve with a large enough effect; inconclusive = small, poorly fitted or top-dose-only effect; inactive = no such curve, though single readings can be large or run the other way;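 also: % of control where 0% means no effect; miR-21 action dims this reporter so a rising signal means less miR-21 action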
#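 Using DMEM plus 10% FBS, HeLa miR-21-FLuc cells are incubated with test compounds (final up to about 40uM) for 48 hours; firefly luciferase signal is then imaged following reagent-mediated lysis.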
# GLA inh pH 4.5: qHTS Assay for Inhibitors of Human alpha-Galactosidase at pH 4.5; Alpha-galactosidase A (Homo sapiens), P06280; purified enzyme, 4-MU-alpha-Gal fluorescence, pH 4.5; activity change, negative = inhibition, % at 105 µM; 230,000 tested, under 10 active; AID 1467, 2008; inconclusive = small, poorly fitted or top-dose-only inhibition, or a rising curve; inactive = flat fitted curve, though single readings scatter; no compound was filed as active;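 also: 0% = full activity with enzyme and -100% = basal without enzyme; dose as in the result columns while the protocol names 77 µM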
# The depositor's hits bear a star; ? = inconclusive; / = not tested or not shown. These rows are one share of the data, so the mix of outcomes need not match the whole.
Rango-impB inh,Rango release inh,miR-21 FLuc,GLA inh pH 4.5,compound
1.4%,2%,0%,/,CCN(CC)CCN1C(=O)C2C(C(=O)Nc3cc(C)cc(C)c3)C3C=CC2(O3)C1C(=O)NC1CCCCC1 (stereo not given)
0.6%,0%,-3%,-3,CS(=O)(=O)N(CC(=O)NC1CC1)C1CCCCC1
?,-1%,-9%,-4,COc1nnc(-c2ccc(C(=O)N3C[C@@H]4C[C@H](C3)c3cccc(=O)n3C4)cc2)c2ccccc12
-5.0%,-1%,/,/,CC(NC(=O)c1ccco1)C(=O)N1CCN(c2cccc(Cl)c2)CC1 (stereo not given)
-0.6%,-4%,-14%,3,COc1ccc(NC(=O)CCCn2c(=S)[nH]c3ccccc3c2=O)cc1
2.1%,-4%,-7%,/,COc1ccc(NC(=O)CSc2n[nH]c(CNc3cccc(C)c3)n2)cc1
1.4%,0%,3%,6,CCCn1c(SCC(=O)Nc2ccccc2CC)nnc1C(C)C
2.7%,8%,-16%,2,CCCCCCn1nc(C(=O)Nc2nc3c(s2)CCCC3)c2ccccc2c1=O
?,18µM*,3%,/,Cc1cccc2cc(C#N)c(N3CCOCC3)nc12
?,?,-3%,-18,CCN1CCN(c2c(/C=C3\SC(=S)N(Cc4ccco4)C3=O)c(C)c(C#N)c(=O)n2C)CC1
0.7%,-8%,-1%,/,Cc1ccc(CN2CCN(c3ccccc3)CC2)o1
-3.3%,-5%,-1%,-5,CCCCSc1nnc([C@H](CC(C)C)NC(=O)OC(C)(C)C)o1
1.7%,-2%,-28%,6,CCOC(=O)C1CCCN(c2ccc(NC(=O)c3snc4c(=O)[nH]cnc34)cc2)C1 (stereo not given)
1.8%,8%,0%,/,CC(C)(C)NC(=O)Cn1nnc(-c2ccc(OCc3c(F)cccc3Cl)cc2)n1
0.3%,-11%,-47%,-2,NC(=O)c1ccc(-c2ccccc2F)cc1
-1.2%,-7%,/,/,O=C(NC1CCCC1)c1c(O)nc2sccn2c1=O
-0.2%,2%,-1%,/,CC(NC(=O)Nc1cccc(F)c1)c1ccc2c(c1)OCO2 (stereo not given)
3.4%,11%,-24%,/,Cc1ccc(NC(=O)CCc2c(C)nn(-c3ccc(N4CCOCC4)nn3)c2C)cc1
-1.1%,-4%,-5%,4,O=C(/C=N/NC(=O)c1ccccc1Br)c1ccccc1
-0.3%,12%,3%,4,O=C(COC(=O)c1ccccc1Sc1ccc(C(F)(F)F)cc1[N+](=O)[O-])NC(=O)NC1CCCC1

# The list goes on:
Rango-impB inh,Rango release inh,miR-21 FLuc,GLA inh pH 4.5,compound
-3.8%,-21%,-4%,-1,COc1ccccc1Nc1cc(N2CCOCC2)c2nonc2c1[N+](=O)[O-]
1.7%,-9%,-3%,/,COc1cc(NS(=O)(=O)c2ccc(NC(=O)COc3cccc(C)c3)cc2)nc(OC)n1
-0.3%,0%,20%,1,CCCOc1ccc(C(=O)NNC(=S)NC(=O)CC)cc1
-0.3%,12%,-51%,/,Cc1coc(C)c1C(=O)Nc1ccc2ccccc2c1
-2.1%,16%,-36%,/,O=C(NCc1ccccn1)c1ccc2nc(C3CCCCC3)oc2c1
1.4%,17%,-76%,-12,CCS(=O)(=O)N1Cc2ccccc2CC1C(=O)Nc1nc(C)cs1 (stereo not given)
4.5%,1%,3%,/,COc1ccc(OCC(=O)OC(C)CN2CCCCC2)cc1 (stereo not given)
1.0%,0%,/,/,O=C(CC1C[C@H](C(=O)N2CCOCC2)[C@@]2(CCC3CCCC3)c3[nH]c4ccccc4c3CCN2C1=O)NCCCn1ccnc1 (stereo not given in full)
4.9%,27%,/,/,CCOC(=O)C1CCCN(C(=O)c2cc(S(=O)(=O)N(C)C)ccc2N2CCCC2)C1 (stereo not given)
?,-23%,1%,-8,CC(=O)Nc1ccc(S(=O)(=O)Nc2nc3ccc([N+](=O)[O-])cc3s2)cc1
4.1%,14%,-6%,/,O=C(c1ccc(Cn2cc([N+](=O)[O-])cn2)o1)N1CCCCCC1
-1.5%,2%,6%,4,CCOC(=O)c1c2n(c3c(NCc4ccccc4)ncnc13)CCCC2
?,?,-1%,-9,COc1cc(/C=C/C(=O)OCC(=O)Nc2ccc(C)c(S(=O)(=O)N3CCCCC3)c2)ccc1O
-0.3%,-11%,19%,6,O=c1cc(N2CCCCC2)c(-c2ccccc2)nn1Cc1cccc(F)c1
-3.2%,9%,13%,-8,O=C1CCCC(O)=C1N=Nc1ccc(S(=O)(=O)N2CCOCC2)cc1
-0.6%,24%,-6%,/,CCc1ccc(NC(=O)CCc2nnc3ccc(N4CCCC4)nn23)cc1
-6.9%,-8%,-7%,0,COc1ccc2[nH]c(O)c(N=O)c2c1
-1.9%,1%,/,/,CN(C)c1ncnc2c1ncn2CCn1cnc2c(N(C)C)ncnc21
2.4%,18%,-27%,/,COC(=O)c1ccc(/C=C/c2c(-c3ccsc3)oc3ccc(N4CCOCC4)cc23)cc1
2.1%,4%,0%,/,Cc1ccc(C)c(-c2ccc(=O)n(Cc3cccc(Br)c3)n2)c1

# Quoted at random: 2 entries already listed, in no set order.
Rango-impB inh,Rango release inh,miR-21 FLuc,GLA inh pH 4.5,compound
1.4%,17%,-76%,-12,CCS(=O)(=O)N1Cc2ccccc2CC1C(=O)Nc1nc(C)cs1 (stereo not given)
4.9%,27%,/,/,CCOC(=O)C1CCCN(C(=O)c2cc(S(=O)(=O)N(C)C)ccc2N2CCCC2)C1 (stereo not given)

# Arranged by value in GLA inh pH 4.5 (descending): 6 of the compounds above.
Rango-impB inh,Rango release inh,miR-21 FLuc,GLA inh pH 4.5,compound
-1.5%,2%,6%,4,CCOC(=O)c1c2n(c3c(NCc4ccccc4)ncnc13)CCCC2
-0.3%,0%,20%,1,CCCOc1ccc(C(=O)NNC(=S)NC(=O)CC)cc1
-6.9%,-8%,-7%,0,COc1ccc2[nH]c(O)c(N=O)c2c1
-3.8%,-21%,-4%,-1,COc1ccccc1Nc1cc(N2CCOCC2)c2nonc2c1[N+](=O)[O-]
-3.2%,9%,13%,-8,O=C1CCCC(O)=C1N=Nc1ccc(S(=O)(=O)N2CCOCC2)cc1
1.4%,17%,-76%,-12,CCS(=O)(=O)N1Cc2ccccc2CC1C(=O)Nc1nc(C)cs1 (stereo not given)

# Continuation.
Rango-impB inh,Rango release inh,miR-21 FLuc,GLA inh pH 4.5,compound
0.1%,-2%,8%,/,COc1ccc(-n2c(SCC(=O)NCC3CCCO3)nc3c([nH]c4ccccc43)c2=O)cc1 (stereo not given)
-0.7%,2%,-1%,-6,CCOC(=O)C1=NNC2(c3ccc(C)cc3)C(=O)N(c3ccccc3)C(=O)C12 (stereo not given)
4.4%,0%,/,/,COc1ccc(-c2csc(NC(=O)CN3C(=O)NC4(CCCC4)C3=O)n2)c(OC)c1
-0.4%,1%,/,/,CCOc1ccccc1N1CCN(CC(=O)N(C2CCCC2)C2CCS(=O)(=O)C2)CC1 (stereo not given)
-3.3%,-8%,-36%,1,Cc1ccc(N2C(=O)[C@@H]3Cc4ccccc4CN3C2=O)cc1
1.6%,5%,-13%,?,COc1ccc(-c2nc(N)n(C(C)=O)n2)cc1
2.4%,8%,/,/,Oc1cc(Nc2cccnc2)cc2cccnc12
0.0%,-1%,7%,2,CC12CN3CC(C)(CN(C1)C3c1ccc(F)cc1)C2 (stereo not given)
1.8%,-10%,-10%,5,COC1CCN(C(=O)c2ccc(OC3CCN(CCc4ccccc4)CC3)cc2)CC1
-0.9%,0%,-5%,/,COC(=O)CCC(=O)N1CCCC(C(=O)c2cc(F)ccc2F)C1 (stereo not given)
-0.2%,-2%,-1%,-12,CC(=O)c1ccc(OCc2ccc(C(=O)c3ccccc3)cc2)cc1
4.9%,-13%,-7%,2,CCOC(=O)C1CCCN(Cc2c(F)cccc2Cl)C1 (stereo not given)
5.3%,7%,1%,8,COc1ccc(NC(=O)N[C@@H](Cc2ccccc2)C(=O)NN)cc1
-3.5%,24%,0%,7,O=C(Cn1nnc(-c2ccc(Cl)cc2)n1)NCC1CCCCC1
-1.2%,-4%,-5%,-3,CCOC(=O)C(CC)n1nc(C)n2c(cc3sccc32)c1=O (stereo not given)
0.4%,-5%,-3%,-13,COc1ccc(-c2ccc(=O)n(Cc3ccc([N+](=O)[O-])cc3)n2)cc1
6.5%,10%,5%,-5,CCOc1ccccc1N(CC(=O)N/N=C/c1cc(Br)ccc1OC)S(C)(=O)=O
3.6%,-1%,-10%,/,COC(=O)c1ccc2c(=O)n(CCN3CCOCC3)c(SCC(=O)Nc3ccccc3Cl)nc2c1
0.5%,-4%,-1%,-2,COc1ccc(-n2c(CN3CCC(C)CC3)nc3ccc([N+](=O)[O-])cc3c2=O)c(OC)c1
-0.1%,-24%,/,/,O=C(Nc1ccc(N2CCCCCC2)cc1)c1ccc[nH]1

# More entries follow.
Rango-impB inh,Rango release inh,miR-21 FLuc,GLA inh pH 4.5,compound
2.5%,0%,-1%,12,CCOC(=O)C(NCCCO)c1ccccc1 (stereo not given)
-0.4%,-2%,/,/,Cc1ccc(S(=O)(=O)NCCC(=O)N2CCCCCCC2)cc1
1.4%,-7%,-19%,-17,COc1ccc(CO/N=C/c2c(C)[nH]c(=O)[nH]c2=O)cc1
-0.9%,-2%,12%,-4,COc1cccc(CN(Cc2ccco2)C(c2ccc(F)cc2)c2nnnn2C(C)(C)C)c1 (stereo not given)
1.2%,25%,8%,-6,O=c1c2ccccc2nc2n1C(CSCc1cccc(C(F)(F)F)c1)CS2 (stereo not given)
0.2%,-10%,-2%,-4,CC(C)CCN(C(=S)Nc1cccc(F)c1)C(C)c1cccs1 (stereo not given)
7.4%,-11%,-3%,/,CN(C)S(=O)(=O)N1CCN(CC(=O)Nc2ccc(F)cc2)CC1
4.8%,7%,-10%,-1,Cc1ccc(-c2nnc(-c3ccccc3)c(N3CCOCC3)n2)cc1
-0.2%,12%,-1%,7,O=C(NNC(=O)NC1CCCCC1)NC1CCCCC1
-5.4%,-3%,-1%,-9,COc1nc(N(C)C)nc(N(C#N)CCOC(C)=O)n1
2.0%,13%,-3%,-1,Cc1ccc(N(CC(N)=O)C2SC(=O)NC2=O)cc1 (stereo not given)
0.8%,33%,/,/,CCOc1cc(N2CCOCC2)c(OCC)cc1NC(=O)c1cccc(S(=O)(=O)N2CCOCC2)c1
-1.6%,12%,3%,6,Cc1cccc(OCC(=O)N/N=C/c2cn[nH]c2-c2ccc(Cl)c(Cl)c2)c1
/,/,-5%,6,c1ccc(CSc2nnc3c4ccccc4c4ccccc4c3n2)cc1
1.6%,11%,1%,-6,c1coc(C2=Nc3cccc4cccc(c34)N2)c1
-0.4%,46%,0%,-2,CCOc1c2ccc(C(=O)NCCCCc3ccccc3)cc2nn1CC
0.2%,-5%,-27%,/,O=C(CCS(=O)(=O)c1ccccc1)Nc1nc2cc3c(cc2s1)OCCO3
-2.5%,35%,-1%,-6,COCCOC(=O)c1c(NC(=O)CN2CCc3ccccc32)sc(C(N)=O)c1C
2.5%,-1%,/,/,CC(=O)c1ccc(S(=O)(=O)Nc2cccc(-c3ccc(N4CCOCC4)nn3)c2)cc1
-1.7%,1%,-1%,-1,CN1CCN(CCc2cn3ncc(C#N)c3nc2-c2ccc(F)cc2)CC1
-2.6%,-2%,0%,/,CC1CCN(S(=O)(=O)c2nnc(NC(=O)c3cccc([N+](=O)[O-])c3)s2)CC1

# 2 entries from above in another layout:
Cc1ccc(-c2nnc(-c3ccccc3)c(N3CCOCC3)n2)cc1
  Rango-impB inh = 4.8%
  Rango release inh = 7%
  miR-21 FLuc = -10%
  GLA inh pH 4.5 = -1

O=C(NNC(=O)NC1CCCCC1)NC1CCCCC1
  Rango-impB inh = -0.2%
  Rango release inh = 12%
  miR-21 FLuc = -1%
  GLA inh pH 4.5 = 7
